Screens (PubChem)
Lassa entry inh: qHTS for Inhibitors of binding or entry into cells for Lassa Virus; Potency, µM (doses to about 37.9 µM), inactives show at the highest dose activity change, negative = inhibition, actives largely listed as inhibitors; Lassa virus pseudotype entry inhibition, cell reporter; control for the full effect not named in the record; 1.2% of 300,000 active; active means well fitted inhibition curve with a large enough effect; inconclusive means small, poorly fitted or top-dose-only effect, or effect the other way; inactive means flat fitted curve, though single readings scatter; tested in HEK293 cells; also: % is scaled to controls: 0 for no effect and ±100 for the full control effect; nearly all actives have a fitted effect of over 50% in size; luciferase read-out
2A StopGo: High Throughput Screening for Foot and Mouth Disease Virus Antivirals | human cells with a luciferase reporter of 2A StopGo recoding; control for the full effect not named in the record | Potency, µM (top dose mostly 57.9 µM), inactives show at the highest dose signal change, negative = less light | 1.2% of 410,000 active | AID 1159524, 2015; active = well fitted falling curve with a large enough effect; inconclusive = small, poorly fitted or top-dose-only effect; inactive = no such curve, though single readings can be large or run the other way; tested in HEK293T cells; also: % is scaled to controls: 0 for no effect and ±100 for the full control effect; nearly all actives have a fitted effect of over 45% in size; luciferase light after 4 h
Cruzain inh Det: qHTS Assay for Promiscuous and Specific Inhibitors of Cruzain (with detergent) | Potency, µM, for inactives: max response, negative = inhibition, actives largely listed as inhibitors | 0.43% of 200,000 active | purified cruzain, Z-FR-AMC fluorescence, 0.01% Triton | Cruzipain (Trypanosoma cruzi), P25779;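 also: plate controls were neutral wells for no effect and buffer without enzyme for full effect; nearly all actives have a fitted effect of over 40% in size; top concentration of the series not given in the record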
Target sequence (P25779 123-467 limits assumed): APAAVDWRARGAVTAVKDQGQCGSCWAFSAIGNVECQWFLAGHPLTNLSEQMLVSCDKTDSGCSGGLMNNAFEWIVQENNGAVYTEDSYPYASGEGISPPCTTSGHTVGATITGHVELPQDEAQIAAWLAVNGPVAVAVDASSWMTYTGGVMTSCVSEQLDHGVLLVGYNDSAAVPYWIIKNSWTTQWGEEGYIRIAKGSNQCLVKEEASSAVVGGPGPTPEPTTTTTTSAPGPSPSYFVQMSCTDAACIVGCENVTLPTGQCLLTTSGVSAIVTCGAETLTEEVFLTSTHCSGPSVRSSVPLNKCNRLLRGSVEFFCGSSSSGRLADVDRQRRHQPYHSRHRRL
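Sodium acetate buffer (100 mM, pH 5.5) containing 5 mM DTT and 0.01% Triton X-100 hosted 1.5 nM cruzain and test compound for 15 min at room temperature. Cleavage of 2 uM Z-FR-AMC was then tracked by fluorescence.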
RE007 growth inh: qHTS Assay for Inhibitors of the HIV-1 protein Vpr. S. pombe RE007 Vpr strain, BacTiter-Glo ATP luminescence, 24 h; control for the full effect not named in the record. Potency, µM (doses to about 92.2 µM), inactives show top-dose activity change, negative = less growth. 0.21% of 360,000 active. AID 651644, 2012; active = well fitted falling curve with a large enough effect; inconclusive = small, poorly fitted or top-dose-only effect; inactive = no such curve, though single readings can be large or run the other way;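 also: % is scaled to controls: 0 for no effect and ±100 for the full control effect; nearly all actives have a fitted effect of over 50% in size; the assay follows cell death caused by Vpr and the record does not say whether a fall means rescue or toxicity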
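Fission yeast strain RE007, carrying one chromosomally integrated HIV-1 vpr copy, was seeded at OD 0.01 in PMG+AL medium with 23 nL pinned compound. After 24 h at 30 °C and 99% humidity, viability was read by BacTiter-Glo luminescence.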
NS1 function inh: qHTS Assay for Inhibitors of Influenza NS1 Protein Function; S. cerevisiae slowed by influenza A NS1, growth recovery by OD600; Potency, µM (series often up to 46.1 µM), without a hit: at the top dose activity, positive = more growth; 0.4% of 270,000 active; AID 2326, 2010; active means well fitted rising curve with a large enough effect; inconclusive means small, poorly fitted or top-dose-only effect; inactive means no such curve, though single readings can be large or run the other way; also: nearly all actives have a fitted effect of over 50% in size
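In this qHTS, NS1 from influenza A is expressed in budding yeast, where it slows growth. Cells are switched from glucose to 2% galactose medium (pH 6.0, -URA), treated with compound, and growth recovery is read at OD600.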
SARS PLP yeast: qHTS of Yeast-based Assay for SARS-CoV PLP; S. cerevisiae expressing SARS-CoV PLpro, growth rescue; control for the full effect not named in the record; Potency, µM (titrated, usually from 32.9 µM), without a hit: at the highest dose activity, positive = growth rescue; 0.19% of 330,000 active; active means well fitted rising curve with a large enough effect; inconclusive means small, poorly fitted or top-dose-only effect; inactive means no such curve, though single readings can be large or run the other way; also: 0% is about no effect; nearly all actives have a fitted effect of over 55% in size; growth read by luminescence after 48 h
Cruzain inh noDet: qHTS Assay for Promiscuous and Specific Inhibitors of Cruzain (without detergent); AID 1476, 2009; purified cruzain, Z-FR-AMC fluorescence, no detergent; Cruzipain (Trypanosoma cruzi), P25779; 2.3% of 200,000 active; Potency, µM, for inactives: max response, negative = inhibition, most hits filed as inhibitors;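 also: plate controls were enzyme without inhibitor for no effect and buffer without enzyme for full effect; nearly all actives have a fitted effect of over 40% in size; top concentration of the series not given in the record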
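Detergent-free condition (0.00005% Triton X-100) in acetate buffer pH 5.5 with DTT. 1.5 nM enzyme and compound were pre-mixed 15 min, then 2 uM Z-FR-AMC substrate added; reaction progress from fluorescence change between first and third reads (60 s).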
Marburg entry inh: qHTS for inhibitors of binding or entry into cells for Marburg Virus; Potency, µM (top dose mostly 37.8 µM), inactives show at the highest dose activity change, negative = inhibition, usual class: inhibitors; Marburg virus pseudotyped entry inhibition, cell reporter; control for the full effect not named in the record; about a third of the inactives were read at about 46 µM; 1.8% of 300,000 active; AID 540276, 2011; active = well fitted inhibition curve with a large enough effect; inconclusive = small, poorly fitted or top-dose-only effect, or effect the other way; inactive = flat fitted curve, though single readings scatter; tested in HEK293 cells; about a fifth of its hits are not listed in these tables; also: % is scaled to controls: 0 for no effect and ±100 for the full control effect; luciferase read-out
An asterisk follows results filed as active; u = inconclusive; x = no result given; & = joins results of further samples; [ ] = dose if it differs, or a comment. Unless noted, calls follow the shape of the dose curve; as a rule, active = well fitted curve in the direction sought with a large enough effect; inconclusive = small, poorly fitted or top-dose-only effect, or another doubt; inactive = no such curve, though single readings can be large; an effect the other way counts as inactive or inconclusive. Potency is read from the fitted curve at half-maximal effect.

The line under a structure holds: Lassa entry inh | 2A StopGo | Cruzain inh Det | RE007 growth inh | NS1 function inh | SARS PLP yeast | Cruzain inh noDet | Marburg entry inh
Cc1no[n+]([O-])c1COc1ccccc1/C=N/n1nnnc1N
  u | -19% | -1.9% | 24% | 7% | 2% | -4% | u
Cc1ccccc1OCC(O)Cn1c(NCc2ccccc2)nc2c1c(=O)[nH]c(=O)n2C (stereo not given)
  -24% | 4% | 3.5% | -3% | 9% | 5% | -6% | u
COc1cc(C(C[N+](=O)[O-])c2c(C)cc3ccccn23)ccc1O (stereo not given)
  x | 22µM* | x | u | -16% | -7% | x | -22%[46.1 µM]
COC(=O)c1sc(NC(=O)CC(C)C)c(C(=O)OC)c1C
  4% | -10% | -2.3% | 3% | 0% | 2% | u | -1%
COc1cccc(N(CC(=O)Nc2cccc(C(C)=O)c2)S(C)(=O)=O)c1
  -21% | -1% | 6.9% | -1% | -9% | 14% | -2% | -23%
COc1cc(NC(=O)NCC2CCN(Cc3ccccc3Cl)CC2)cc(OC)c1OC
  19%[46.1 µM] | -24%&-13% | -0.7% | 5% | -1% | -1% | 6% | u
CCCCOc1ccccc1NC(=O)C=C(C)C
  0% | 6% | -1.0% | -15% | -7% | -3% | -4% | 14%
CNC(=O)c1c(N)sc2c1CCCCC2
  x | x | -16% | x | -20% | 2% | -15% | 0%
COc1ccc(N2CCN(C(=O)COC(=O)CCOc3ccc(C)cc3)CC2)cc1
  -8% | -25% | x | 10% | x | 0% | x | 18%[46.1 µM]
CCC(=NCc1ccc(F)cc1)c1c(O)n(C)c(=O)n(C)c1=O
  -5% | 40µM* | 5.1% | -4% | -17% | 3% | -9% | u
COc1cc(NC(=S)NCCSc2ccc(C)cc2)cc(OC)c1
  10% | -10% | 2µM* | -6% | -66% | -67% | 0.25µM* | -30%
O=C(CCC(=O)c1ccc[nH]1)c1ccc(Cl)cc1
  u | 39%[activator] | -3.9% | -28% | -22% | -3% | u | -14%
COc1ccc(NC(=O)c2c(NCc3ccc(C)o3)sc3c2CCC(C)C3)cc1 (stereo not given)
  2%[46.1 µM] | 38%[activator] | -13% | x | x | x | 0% | x
COC(=O)c1ccc(CNC(=O)CCc2c[nH]c3ccccc23)cc1
  x | 0% | x | -17% | -3% | 1% | x | 3%[46.1 µM]
Cc1ccc(Nc2nc(N)[nH]c(=O)c2N=O)cc1
  x | 8% | x | 3% | 6% | 0% | x | x
Cc1cc(C(=O)Nc2ccc(C)c(C)c2)n(-c2ccccc2)n1
  -29% | 5% | x | -21% | -3% | 0% | x | 8%
COc1cc(C2c3c(-c4cc(C)ccc4O)n[nH]c3C(=O)N2Cc2cccnc2)cc(OC)c1OC (stereo not given)
  u | 0% | -3.9% | x | x | x | 6% | 1%[46.1 µM]
COc1ccc(C2CC(=O)c3c([nH]c(C(=O)OC4CCCC4)c3C)C2)cc1OC (stereo not given)
  3%[46.1 µM] | -28% | 3.1% | x | x | x | 3% | u
CCOc1ccc(C(C)(C)C)cc1S(=O)(=O)n1nc(C)cc1C
  10% | 23% | -5.6% | -7% | -6% | 3% | 2% | u
O=C(/C=C/c1ccc(Cl)c([N+](=O)[O-])c1)NCc1cccnc1
  -3% | -1% | x | -10% | x | x | x | 3%
CS(=O)(=O)N1CCN(CC(=O)NC2CCCC2)CC1
  x | -3% | x | 2% | 14% | u | x | x
COC(=O)NC(Nc1sc2c(c1C(N)=O)CCCC2)(C(=O)OC)C(F)(F)F (stereo not given)
  8% | -23% | -2.0% | 11% | 12% | 1% | 2% | 8%
COc1ccc(CN2CCn3ncc(C(=O)Nc4cccc(C)c4)c3C2=O)cc1
  3% | -28% | 7.0% | -14% | 4% | 6% | 5% | 6%
O=c1[nH]nc(N2CCOCC2)c(=O)[nH]1
  x | -19% | x | 5% | -1% | 0% | x | x
CCOC(=O)c1nc(Nc2cc(C)cc(C)c2)c2ccccc2n1
  -2% | 0% | x | -21% | -14% | -1% | x | -28%[46.1 µM]
COC(=O)C(Cc1ccc(OC(=O)c2ccc(C)cc2)cc1)N1Cc2ccccc2C1=O (stereo not given)
  -11% | 0% | -6.0% | 12% | 7% | -9% | 4% | -11%[46.1 µM]
Cc1ccsc1C(=O)C1CCCN(Cc2cnn(C)c2)C1 (stereo not given)
  3% | -18% | x | -15% | 3% | 1% | x | 24%[46.1 µM]
CCN1CCN(C(=S)Nc2cccc(C(F)(F)F)c2)CC1
  20% | 27% | -2.9% | -9% | -3% | 11% | 1% | 36%
Cc1cnc(C(=O)Nc2ccc(F)cc2)cn1
  u | 35%[activator] | 2.6% | -18% | -36% | 1% | -1% | u
Cc1c(C(=O)N(Cc2ccccc2F)C2CCS(=O)(=O)C2)oc2ccccc12 (stereo not given)
  -17%[46.1 µM] | 0% | -6.3% | x | x | x | 3% | u
COc1cc(C)cc(OC)c1OCC(=O)Nc1cc(C)on1
  -2% | 0% | x | 8% | x | -1% | x | u
Cc1cc(C)c(C(=O)N2CCCC(Nc3ccc(C)c(C)c3)C2)o1 (stereo not given)
  x | 35%[activator] | x | -8% | -10% | 4% | x | x
COc1cc(/C=N/n2c(-c3ccccc3)n[nH]c2=S)ccc1O
  x | -12% | x | -7% | 21% | 1% | x | x
Cc1c(C(=O)N(C)C)sc2c1c(=O)n(-c1ccc(Cl)c(Cl)c1)c(=O)n2CC(=O)C(C)(C)C
  14%[46.1 µM] | -14% | 3.0% | x | x | x | 7% | x
CCc1c(C)c2cc(Cl)c(O)c(CN3CCCCC3)c2oc1=O
  13% | 9% | 32µM* | 8% | 4% | -1% | u | 15%
CCOC(=O)C(C)Sc1nnc(-c2ccccc2O)n1Cc1ccccc1 (stereo not given)
  4% | -8% | 1.4% | 2% | -52% | -6% | 4% | -22%
O=C(NCCc1ccccc1)C1CCN(c2nc3ccccc3nc2C(F)(F)F)CC1
  2%[46.1 µM] | -11% | 2.5% | x | x | x | 2% | x
O=c1c(C=NCc2ccccc2)c(NCc2ccccc2)nc2ccccn12
  u | 12% | x | 2% | -5% | -1% | x | 14%[46.1 µM]
Clc1ccc(OCCn2ccnc2)c(Cl)c1
  7% | 10% | -0.8% | 3% | -46% | u | -5% | 1%
O=C(COC(=O)c1ccccc1)NC1CCCC1
  26%[46.1 µM] | 29% | x | -9% | 5% | -1% | x | u
COc1ccc(-n2ncc3c2CC(C)(C)CC3NC(=O)CCN2CCCC2=O)cc1 (stereo not given)
  x | 11% | x | 7% | 10% | 3% | x | x
O=C(Cc1ccccc1Cl)Nc1cccnc1
  14%[46.1 µM] | -4% | x | 72% | x | 3% | x | 13%[46.1 µM]
O=C1CN(C(=O)c2ccccc2F)C(c2ccc(F)cc2)c2cc(Br)ccc2N1 (stereo not given)
  u | -14% | x | -3% | 12% | -1% | x | u
CCOc1ccc(NS(=O)(=O)c2cc(C(=O)N3CCCC3)ccc2Cl)cc1
  16%[46.1 µM] | 30% | x | 6% | x | -2% | x | -2%
O=c1cc(CN2CCN(CCO)CC2)c2cc3c(cc2o1)CCC3
  0% | -1% | -6.5% | -2% | -5% | 1% | 2% | 1%

Reprinted at random: 6 entries already listed
The line under a structure holds: Lassa entry inh | 2A StopGo | Cruzain inh Det | RE007 growth inh | NS1 function inh | SARS PLP yeast | Cruzain inh noDet | Marburg entry inh
Cc1cc(C)c(C(=O)N2CCCC(Nc3ccc(C)c(C)c3)C2)o1 (stereo not given)
  x | 35%[activator] | x | -8% | -10% | 4% | x | x
CCOc1ccc(NS(=O)(=O)c2cc(C(=O)N3CCCC3)ccc2Cl)cc1
  16%[46.1 µM] | 30% | x | 6% | x | -2% | x | -2%
O=C1CN(C(=O)c2ccccc2F)C(c2ccc(F)cc2)c2cc(Br)ccc2N1 (stereo not given)
  u | -14% | x | -3% | 12% | -1% | x | u
O=c1c(C=NCc2ccccc2)c(NCc2ccccc2)nc2ccccn12
  u | 12% | x | 2% | -5% | -1% | x | 14%[46.1 µM]
Cc1c(C(=O)N(C)C)sc2c1c(=O)n(-c1ccc(Cl)c(Cl)c1)c(=O)n2CC(=O)C(C)(C)C
  14%[46.1 µM] | -14% | 3.0% | x | x | x | 7% | x
O=C(COC(=O)c1ccccc1)NC1CCCC1
  26%[46.1 µM] | 29% | x | -9% | 5% | -1% | x | u

(list continues)
The line under a structure holds: Lassa entry inh | 2A StopGo | Cruzain inh Det | RE007 growth inh | NS1 function inh | SARS PLP yeast | Cruzain inh noDet | Marburg entry inh
COc1ccc(NS(=O)(=O)c2ccc(NC(=O)CCNS(=O)(=O)c3ccc(C)cc3)cc2)cc1
  u | -10% | -8.0% | 5% | 0% | -24% | -10% | 1%
Cc1cc2cc(CNC(=O)c3ccc4c(c3)OCO4)ccc2[nH]1
  15% | x | -2.1% | -7% | 2% | -5% | u | 22%
O=C(CC1CCS(=O)(=O)C1)NC1CCCCC1 (stereo not given)
  -13% | 5% | -0.6% | 7% | 3% | -4% | 7% | -9%
COCCN(Cc1cn(C)nc1-c1ccc(Oc2ccccc2)cc1)C(C)C
  x | -10% | x | -19% | 2% | 2% | x | x
Cc1c(Oc2cc(NN3CCCCC3)c([N+](=O)[O-])cc2[N+](=O)[O-])cccc1[N+](=O)[O-]
  x | -20% | x | 7% | 21% | 3% | x | x
CC(=O)c1ccc(S(=O)(=O)Nc2ccc(-c3ccc(N4CCCCCC4)nn3)cc2)cc1
  -3%[46.1 µM] | 34%[activator] | -3.0% | x | x | x | 7% | x
Cc1nnc(CN(C)C(=O)c2cc(COc3ccc(F)cc3Cl)on2)o1
  1% | 48%[activator] | x | 0% | -4% | 24% | x | u
